CDC25B CDK2 inh: primary biochemical HTRF screen for blockers of M-phase inducer phosphatase 2 binding to CDK2/cyclin A | P30305+P24941 | HTRF CDC25B-CDK2/CyclinA binding, anti-His/anti-Flag; stronger effect = higher value | z-score (concentration not given with the values) | 94,000 compounds, 0.72% hits | AID 1259370, 2018;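 further: score is relative to mean and SD of negative controls; strong numbers were not always called active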
TAR Tat displ: TAR RNA-Tat peptide displacers, HIV-1, primary screen, biochemical, FRET, FAM/TAMRA-labeled Tat. HIV-1 TAR RNA, Tat peptide displacement FRET; stronger effect = higher value. z-score (no concentration beside the values). 100,000 compounds, 0.6% hits. AID 1259389, 2018;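 further: score is relative to mean and SD of negative controls; some compounds called inactive have numbers as strong as hits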
Active calls of the source: *; . = no result given.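 How the source made its calls: active means z-score from 3 up in half or more of its runs; inactive means the rest.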

compound,CDC25B CDK2 inh,TAR Tat displ
Nc1nonc1-c1nc2ccccc2n1CC(=O)NCCC1=CCCCC1,0.05,-1.61
COC(=O)C(C)Oc1cccc2c1ccc1c3c(c(=O)oc12)CCCC3 (stereo not drawn),-0.23,.
CCOc1ccc(/C(O)=C2\C(=O)C(=O)N(c3nnc(C)s3)C2c2ccc(C(C)(C)C)cc2)cc1 (stereo not drawn),-4.08,.
CN(C)c1cc(C(F)(F)F)cnc1C#N,-0.25,.
CN1CCN(C2CCN(S(=O)(=O)c3ccc(F)cc3)CC2)CC1,-0.71,.
CCCCCOC(=O)CSc1n[nH]c(=O)[nH]c1=O,-2.6,1.38
COc1ccc(CCN=Cc2ccccn2)cc1OC,-1.9,.
CCN(CC)c1ccc(Nc2nc(-c3ccc(O)cc3O)cs2)cc1,-1.32,2.91
CN1C(=O)Cc2cc(S(=O)(=O)NCCN3CCN(c4ccccc4F)CC3)ccc21,.,0.06
Cc1c(C(=O)O)sc2ncnc(NCCCN3CCC(N4CCCCC4)CC3)c12,.,-0.64
COc1ccc(CSc2ncn[nH]2)cc1,-0.47,.
O=C(CN1C(=O)c2cccnc2Sc2ccccc21)N1CCN(c2ccccc2)CC1,.,0.97
Cn1c(=O)c2c(ncn2CC(=O)Nc2ccc(Cl)cc2)n(C)c1=O,-0.13,1.37
O=C(O)CCCC(=O)NCc1ccccn1,-1.02,3.14
Clc1ccccc1OCc1nn2c(COc3ccccc3)nnc2s1,0.52,-0.98
CCc1ccc(Nc2ccc(Cl)nn2)cc1,-0.95,0.89
CCN1CCN(c2cc3c(cc2F)c(=O)c(S(=O)(=O)c2ccc(C)cc2C)cn3C)CC1,.,-0.95
c1ccc(COc2cccc(CNCc3cccnc3)c2)cc1,-0.08,0.83
C=CCn1c(SCC(=O)OCC)nc2sc3c(c2c1=O)CC(C(C)C)OC3 (stereo not drawn),-2.1,-0.42
CC1(C)Cc2c(c(N3CCOCC3)nc3sc(C(=O)N4CCCCC4)c(N)c23)CO1,-0.05,-0.98
CC(=O)N1CCN(c2nnc(-n3cccc3)s2)CC1,1.81,0.2
CCOC(=O)c1cc(CC)sc1NC(=O)c1ccccc1NS(=O)(=O)c1ccc(C)cc1,-2.08,.
COc1ccc(-c2onc(C)c2C)cc1S(=O)(=O)Nc1cccnc1,.,1.32
Cc1onc(-c2c(Cl)cccc2Cl)c1C(=O)N[C@@H]1C(=O)N2[C@@H]1SC(C)(C)[C@@H]2C(=O)O,.,1.47
CN(Cc1ccco1)S(=O)(=O)c1ccc(-c2cc(C(F)(F)F)on2)s1,.,0.99
CCOc1ccc2c(c1)NC(c1ccc(OC)c(OC)c1)=NC(c1cccs1)=N2,-3.39,1.8
O=C(CSc1nc(-c2ccccc2)nc2cc(=O)[nH]n12)N1CCCc2ccccc21,.,0.66
CC(C)(C)c1ccc(C(=O)NNC(=S)Nc2ccc3c(c2)OCO3)cc1,-1.44,.
COc1ccc(Cl)cc1NS(=O)(=O)c1cc2c3c(c1)CC(=O)N3CCC2,.,1.61
Cc1cc(-c2ccc(C)c(S(=O)(=O)Nc3cc(F)ccc3F)c2)on1,.,-0.12
C=CCn1c(=S)sc2c(SCC(=O)N3CCc4ccccc43)ncnc21,-0.44,0.9
O=C1CC(c2cccc(F)c2)c2scc(-c3ccccc3)c2N1 (stereo not drawn),.,1.34
CCOC(=O)CN1C(=O)C(O)(CC(=O)c2c(C)cc(C)cc2C)c2ccccc21 (stereo not drawn),0.02,0.89
CCc1nn(C(C)C(=O)NCCc2c[nH]c3ccccc23)c(=O)c2cc3occc3n12 (stereo not drawn),-1.3,1.02
OC(CNc1ccc(Cl)cc1)CSc1ccc(Cl)cc1 (stereo not drawn),0.7,.
O=C(Nc1ccccc1)NC(c1ccc(Cl)cc1)c1nnc(-c2ccccc2)o1 (stereo not drawn),.,1.78
Cc1ccc(CNS(=O)(=O)c2c(C)nc3sccn3c2=O)cc1,-3.35,-0.32
CCOc1cc(C2C(C(=O)OC)=C(C)NC3=C2C(=O)c2ccccc23)c(Br)cc1OC (stereo not drawn),-1.01,0.92
Cn1nc(CC(=O)Nc2cccc(Cl)c2)c2ccccc2c1=O,-0.29,-0.32
CC1=C(C(=O)NC2CC2)C2(CCN(S(C)(=O)=O)CC2)OC1=O,.,0.59
CCOc1ccccc1NC(=O)Nc1nc2c(s1)CCCCCC2,.,-0.05
COc1ccccc1-n1c(SCC(=O)N2CCOCC2)nc2c(c1=O)SCC2,-0.75,0.6
CCc1nnc2c3ccccc3nc(N3CCN(c4ccccc4F)CC3)n12,.,0.18
Cn1cnnc1SCC(=O)N1c2ccccc2CCc2ccccc21,-0.94,-0.54
Cc1ccc(-c2nc(SCc3cc(=O)n4nc(-c5ccccc5)sc4n3)n[nH]2)cc1,.,-0.48
O=C(NCc1cccs1)c1cnc(N2CCOCC2)nc1,.,0.54
CNC(=O)C1=C(C)NC(=S)NC1c1ccccc1Cl (stereo not drawn),-1.18,.
CCn1nc(C)c(CNC(=O)Nc2cc(OC)ccc2OC)c1C,.,0.99
O=c1[nH]ccn(-c2ccc3c(c2)OCO3)c1=O,1.46,1.03
Cc1cccc(-c2nc(CSc3nc4c(c(=O)[nH]3)CCC4)c(C)o2)c1,-0.55,-1.2
Cc1cccc(-c2noc(COc3ccccc3Cl)n2)c1,-0.6,2.07
N#CC(NCc1ccccc1)c1ccc(Cl)c(Cl)c1 (stereo not drawn),-1.57,.
CC(=O)Oc1c(-c2ccccc2)oc2c(CC=C(C)C)c3c(c(OC(C)=O)c2c1=O)C=CC(C)(C)O3,.,0.86
CCCCOC(=O)c1ccc(-n2c(=O)c(C#N)cc3c(=O)n4cccc(C)c4nc32)cc1,1.16,-0.27
CCOC(=O)c1csc(-c2ccc(C(F)(F)F)cn2)n1,-1.95,.
CC(C)OCCCn1c(=S)[nH]c2c(sc3ccccc32)c1=O,-1.64,.
Cc1nc(-c2cccnc2)nc(NCc2ccccc2)c1Cl,-0.01,.
S=C1SCN(Cc2ccco2)CN1Cc1ccco1,-1.32,.
Cc1nc(-c2ccc(C)c(S(=O)(=O)NCC3CCCO3)c2)cs1 (stereo not drawn),.,1.02
C=CCN1C(=O)C(O)(CC(=O)c2c(C)coc2C)c2ccccc21 (stereo not drawn),0.28,-0.6

(further entries)
compound,CDC25B CDK2 inh,TAR Tat displ
Cc1sc2c(c1C)c(=O)n(-c1ccccc1)c1n[nH]c(=S)n21,-2.01,.
O=c1[nH]c(=O)n(CCO)c2n[nH]nc12,-1.22,0.13
Cc1ccc(-c2[nH]ncc2Sc2ccc(C(F)(F)F)cn2)cc1,-0.72,.
Cc1sc2c(c1C)CSC(C(=O)NC1CC1)=C2,.,-1.24
COc1ccc(C(=O)CSc2nc3n(n2)C(c2ccc(F)cc2)C2=C(CC(C)(C)CC2=O)N3)cc1 (stereo not drawn),-1.21,-0.35
Cc1c(NS(=O)(=O)c2ccc(Br)cc2)c(=O)n(-c2ccccc2)n1C,-5.21,3.61
O=C(CSc1ccsc1[N+](=O)[O-])N1CCCCC1,-1.1,0.4
CCOC(=O)C1CCCN(C(=O)c2cc3c(=O)n4ccccc4nc3s2)C1 (stereo not drawn),0.79,.
CC(C)C1c2cccn2CCN1C(=O)Nc1ccc(Br)cc1F (stereo not drawn),.,0.78
COC(=O)c1cnn2c1NCN(Cc1ccco1)C2,-1.39,-1.68
Cc1ncc(-c2ccc(C)c(S(=O)(=O)Nc3ccccc3C)c2)o1,.,0.92
CN(CC(=O)Nc1nc2ccc(Cl)cc2s1)S(=O)(=O)c1ccc2[nH]c(=O)ccc2c1,.,-1.45
COC(=O)C1=C(C)N=C2SC(C)C(=O)N2C1c1ccc(Cl)cc1 (stereo not drawn),-2.12,0.56
CCOC(=O)c1c(C)oc2nc(C)nc(N3CCCCC3)c12,.,0.81
CCN1CCC(N(Cc2ccc3c(c2)OCO3)C(=O)Nc2cc(C)ccc2C)CC1,.,0.84
O=c1nc(/C=C/c2ccc(-c3ccc(F)c(Cl)c3)o2)cc(C(F)(F)F)[nH]1,-1.08,-4.35
COc1ccc2cc(NC(=O)NCC3CCCO3)n(C)c2c1 (stereo not drawn),-0.31,0.45
O=C(NCc1cccc(Br)c1)c1cc2cccc3c2n1CCS3,.,-1
O=C(C1CCCN(c2ncnc3c2nc2n3CCCCC2)C1)N1CCN(c2ccc(F)cc2)CC1 (stereo not drawn),.,0.62
O=C(Cn1cnc(S(=O)(=O)N2CCCCC2)c1)N1CCN(C2CCCCC2)CC1,.,-0.87
CCCn1c2ccccc2c2cnn(CC(=O)N3CCN(CC)CC3)c(=O)c21,.,0.44
COc1ccc(-c2cc(=O)[nH]c(=S)s2)cc1,-1.9,-0.24
CCCN(c1ccc(C(C)C)cc1)S(=O)(=O)c1cc(-c2ccc(=O)[nH]n2)ccc1C,-1.6,1.32
Cc1noc(C)c1Cc1ccc(C(=O)NC2CCCCC2)o1,.,1.79
CCCCCCSc1nnc2n(C)c(=O)c3c4c(sc3n12)COC(C)(C)C4,0.45,.
Cn1c(=O)[nH]c(=O)c2c1nc(Br)n2CC(O)COc1ccc(Cl)cc1 (stereo not drawn),-0.56,.
COc1ccc(S(=O)(=O)N2CCN(S(=O)(=O)c3ccc4ccccc4c3)CC2)cc1,-0.96,1.29
COc1ccc(-n2c(C)nnc2SCc2nc(-c3cccs3)no2)cc1,-1.16,1.85
COc1ccc(-n2nc(C(=O)N(C)C3CCCCC3)c3c4ccccc4n(C)c3c2=O)cc1,-0.76,.
CC1CCC(NC(=O)C2(C)Cc3ccccc3C(=O)N2C2CCCCC2)CC1 (stereo not drawn),0.56,-0.21
O=C(CCn1c(SCc2ccccn2)nc2c(sc3ccccc32)c1=O)NCC1CCCO1 (stereo not drawn),-1.3,.
FC(F)(F)c1nnc2sc(COc3ccc(Cl)cc3)nn12,-0.59,1.03
CCOc1ccc(C2C(C(=O)OC)=C(C)N=C3SCCC(=O)N32)cc1 (stereo not drawn),0.62,0.03
Cc1nn2c(=O)cc(COC(=O)c3ccc4c(c3)OCO4)nc2s1,.,-0.59
COc1ccc(-n2cc3c(c2-c2ccc(Br)cc2)c(=O)n(C)c(=O)n3C)c(OC)c1,-1.53,1.67
Cc1cc2c(cc3c(=O)n(CCCC(=O)NCc4ccccn4)nc(C)n32)o1,-1.63,-1.38
O=C1CC(c2cccc(O)c2)c2c(nc(SCc3ccccc3)[nH]c2=O)N1 (stereo not drawn),-0.35,1.13
O=C(CSc1nc2[nH]ncc2c(=O)n1-c1cccc2ccccc12)NC1CCCCC1,-2.05,.
CCN1CCN(S(=O)(=O)c2ccc(-c3cc(C)no3)s2)CC1,.,1.34
CCS(=O)(=O)c1ccc(O)c(Nc2nc(C)nc3c2CCC3)c1,-3.79,2.25
Cc1cccc(C)c1Nc1c(-c2ccsc2)nc2cnccn12,-0.81,-1.17
CCN1CCN(CCCNC(=O)c2sc3nc4n(c(=O)c3c2C)CCCCC4)CC1,.,-0.01
CCOC(=O)c1cnc2ccc(Cl)cc2c1Nc1ccc(N(C)C)cc1,-0.54,-4.19
c1ccc(-c2cc(CSc3nc4ccccc4[nH]3)on2)cc1,-0.97,0.36
O=C1c2ccccc2C(=O)N1Cc1ccc(C2Nc3ccccc3-c3cccn32)o1 (stereo not drawn),-1.59,.
CCOc1ccccc1OCc1nn2c(CC)nnc2s1,-0.41,-0.13
CCn1c(SCC(=O)Nc2nnc(C)s2)nc2c([nH]c3ccccc32)c1=O,.,1.53
CC(C)N(CCS(=O)(=O)N1CCNCC1)S(=O)(=O)c1ccc(Br)cc1,.,1.68
Cn1cccc1-c1cc2n(n1)CCCN2C(=O)CCC(=O)Nc1ccc(F)cc1Cl,.,-0.44
CC1=C(c2ccc(C)c(C)c2)S(=O)(=O)NC1=NC(C)c1ccccc1 (stereo not drawn),-1.86,0.49

3 of the compounds above, field by field.
CN1C(=O)Cc2cc(S(=O)(=O)NCCN3CCN(c4ccccc4F)CC3)ccc21
  CDC25B CDK2 inh: . | TAR Tat displ: 0.06

Cc1cccc(-c2noc(COc3ccccc3Cl)n2)c1
  CDC25B CDK2 inh: -0.6 | TAR Tat displ: 2.07

C=CCn1c(SCC(=O)OCC)nc2sc3c(c2c1=O)CC(C(C)C)OC3 (stereo not drawn)
  CDC25B CDK2 inh: -2.1 | TAR Tat displ: -0.42

An excerpt from above in order of number of heavy atoms, rising.
compound,CDC25B CDK2 inh,TAR Tat displ
CC1=C(c2ccc(C)c(C)c2)S(=O)(=O)NC1=NC(C)c1ccccc1 (stereo not drawn),-1.86,0.49
CCOC(=O)C1CCCN(C(=O)c2cc3c(=O)n4ccccc4nc3s2)C1 (stereo not drawn),0.79,.
CCN1CCN(CCCNC(=O)c2sc3nc4n(c(=O)c3c2C)CCCCC4)CC1,.,-0.01

Look-ups from the results shown.
CCN1CCN(CCCNC(=O)c2sc3nc4n(c(=O)c3c2C)CCCCC4)CC1 – TAR Tat displ = -0.01
Cn1cccc1-c1cc2n(n1)CCCN2C(=O)CCC(=O)Nc1ccc(F)cc1Cl – TAR Tat displ = -0.44
Cc1cccc(C)c1Nc1c(-c2ccsc2)nc2cnccn12 – TAR Tat displ = -1.17
CC(C)N(CCS(=O)(=O)N1CCNCC1)S(=O)(=O)c1ccc(Br)cc1 – TAR Tat displ = 1.68
